RecA splice inh: blocks M. tuberculosis RecA intein splicing. inhibition, %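 (about 9 µM by stock and volumes)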. P9WHJ3. 290,000 tested, 0.75% active. cell-free RecA intein splicing, fluorescence. AID 2221; in the data active means inhibition above about 30%;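 further: 0% = vehicle wells and 100% = reference inhibitor control wells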
Target sequence (P9WHJ3 whole entry, looked up, canonical isoform): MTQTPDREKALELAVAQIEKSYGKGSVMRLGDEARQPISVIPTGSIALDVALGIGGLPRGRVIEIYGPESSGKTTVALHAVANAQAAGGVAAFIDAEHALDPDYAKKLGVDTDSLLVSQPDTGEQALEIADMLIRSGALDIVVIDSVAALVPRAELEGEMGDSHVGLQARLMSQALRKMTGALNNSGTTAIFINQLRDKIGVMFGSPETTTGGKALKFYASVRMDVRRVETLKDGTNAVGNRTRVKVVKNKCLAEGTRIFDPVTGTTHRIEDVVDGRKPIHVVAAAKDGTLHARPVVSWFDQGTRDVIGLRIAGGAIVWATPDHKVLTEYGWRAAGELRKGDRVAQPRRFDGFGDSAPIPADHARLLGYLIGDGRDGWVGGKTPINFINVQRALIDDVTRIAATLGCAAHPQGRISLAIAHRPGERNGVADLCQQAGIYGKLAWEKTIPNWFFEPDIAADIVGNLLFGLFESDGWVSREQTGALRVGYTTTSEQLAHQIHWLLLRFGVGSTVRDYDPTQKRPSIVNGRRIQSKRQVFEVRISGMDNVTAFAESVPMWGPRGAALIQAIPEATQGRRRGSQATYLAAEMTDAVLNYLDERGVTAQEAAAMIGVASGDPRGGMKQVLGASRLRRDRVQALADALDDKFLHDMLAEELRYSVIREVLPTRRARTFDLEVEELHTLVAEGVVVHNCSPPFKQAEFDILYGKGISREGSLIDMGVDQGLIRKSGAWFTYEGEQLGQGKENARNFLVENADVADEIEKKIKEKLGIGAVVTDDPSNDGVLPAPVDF
Arbovirus inh: antivirals against arbovirus infection; 200,000 tested, 0.37% active; arbovirus infection cell-based antiviral screen; inhibition, % at 10 µM;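 active means inhibition from about 30%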;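 further: bluetongue infection of BSR cells; cell survival read as ATP light after 72 h; 0% = infected wells without compound and 100% = uninfected wells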
Mtb betalactam: beta-lactam sensitization of Mtb H37Rv | M. tuberculosis H37Rv growth with meropenem, percent inhibition; hits of this screen are not shown here | inhibition, % at 25 µM | 330,000 tested, 0.27% active | AID 434955;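 active means about 74% or more and at least 40 points above the plate without the antibiotic, then above 30% in a dose series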;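 further: growth measured after seven days incubation then overnight dye step; 0% = bacteria only wells and 100% = bacteria with antibiotic; twin plates without the antibiotic show which effects depend on it; some results filed as inactive read as strong as hits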
Mtb H37Rv: M. tuberculosis H37Rv growth inhibitors, H37Rv strain (AID 1626); M. tuberculosis H37Rv growth inhibition; higher % means a stronger effect; inhibition, % at 10 µM; hits with a dose series show IC50 in µM; 220,000 tested, 0.95% active;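 active means confirmed in a dose series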;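 further: bacteria incubated seven days before Alamar blue readout; 0% = bacteria only wells and 100% = bacteria with antibiotic wells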
YopH PTP inh: blocks Yersinia enterocolitica YopH tyrosine phosphatase; fluorescence Ex485/Em525; inhibition, %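 (about 10 µM by stock and volumes)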; 140,000 tested, 0.16% active;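 active means inhibition of 50% or more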;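 further: controls were vehicle for no effect and minimum signal wells for full effect; inactives centre near -20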
Arbovirus inh repeat: also measured in Arbovirus inh; calls as there; inhibition, %; measured here: 10K subset replicate screen; many hits read low in the repeat;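 first of two repeat runs on a subset; 0% = infected and 100% = uninfected wells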
The depositor's hits bear a star; i = inactive; x = no result given.

SMILES | RecA splice inh | Arbovirus inh | Mtb betalactam | Mtb H37Rv | YopH PTP inh | others
CC(=O)N1CCN(CC(=O)Nc2ccc3c(c2)CCC3)CC1 | -0.4 | 5 | 1 | 6% | -13
COc1ccccc1N1CCN(C(=O)c2sc3nc4n(c(=O)c3c2C)CCC4)CC1 | -3.0 | x | -4 | x | x
CCCNC(=O)c1onc(CSc2ccc(Cl)cc2)c1C(=O)NC(C)C | 5.3 | x | 2 | x | x
COc1ccc(OCC(=O)N(Cc2ccco2)C2CCS(=O)(=O)C2)cc1 (configuration not stated) | -4.8 | x | -5 | 4% | x
O=C(CNC(=O)C(c1ccccc1)c1ccccc1)N/N=C\c1ccc(C(=O)O)cc1 | -2.5 | x | -2 | x | x
COc1ccc(N2CC(C(=O)Nc3nnc(SCC(=O)NCc4ccco4)s3)CC2=O)cc1 (configuration not stated) | 4.0 | x | -15 | x | x
CC(NC(=O)COC(=O)C1=COCCO1)C12CC3CC(CC(C3)C1)C2 (configuration not stated) | 2.0 | 16 | 58 | 79% | x
COc1ccc(NC(=O)c2oc3ccccc3c2NC(=O)c2ccc3c(c2)OCO3)cc1 | x | 2 | -3 | 15% | -22
N/C(=N\OC(=O)N1CCOCC1)c1ccc(Br)cc1 | 0.6 | -26 | -4 | -9% | x
CCN(Cc1ccccc1)C(=O)c1cc(-c2ccc(OC)c(OC)c2)nc2ccccc12 | 10.0 | x | 1 | x | x
O=C(N/N=C/C=C\c1ccccc1[N+](=O)[O-])c1cccnc1 | 0.0 | x | 0 | -8% | x
COc1ccc2nc(Cl)c(C3CC(c4ccco4)=NN3C(=O)CCC(=O)O)cc2c1 (configuration not stated) | 0.9 | 2 | -5 | -6% | -25
COc1ccc([C@@H]2[C@@H]3C(=O)N(C(C)(C)C)C(=O)[C@@H]3[C@]3(C)C(=O)N(c4cccc(Br)c4)C(=O)N23)cc1 | 5.4 | x | -13 | x | x
COc1ccc(N2CCN(Cc3nc4c(c(=O)n(C)c(=O)n4C)n3Cc3cccc(C)c3)CC2)cc1 | 7.8 | -4 | 4 | x | -16 | Arbovirus inh repeat=-3
CCOc1cc(NC(=S)NCc2ccco2)c(OCC)cc1NC(=O)C1CC1 | -2.0 | -3 | -3 | 1% | -38
COc1cccc(C(=O)NNC(=O)C(=O)N2CCCCC2)c1 | 0.1 | 4 | 0 | -5% | x
Cc1nn(CCCC(=O)NCCCN2CCN(C)CC2)c(=O)c2c1sc1ccccc12 | 2.5 | x | -1 | x | x
O=C(/C=C/Nc1nccs1)C(F)(F)Cl | -2.7 | 9 | -3 | 7% | x
COc1ccccc1OCCCOc1cccc(/C=C2\SC(=O)NC2=O)c1 | 2.3 | x | 31 | x | x
COc1ccc(OCC(O)CNC(=O)c2cccs2)cc1 (configuration not stated) | -0.4 | x | -4 | 13% | x
Cc1ccccc1NC(=O)CCN1CCc2ccccc2C1 | 0.2 | -4 | -2 | -8% | x
Cc1nn2c(-c3ccccn3)ccnc2c1Br | -0.7 | 3 | 1 | 9% | x
CC1CCCC(NC(=O)c2ccc(COc3ccccc3)o2)C1C (configuration not stated) | 1.8 | x | 11 | x | x
Cc1ccc(S(=O)(=O)N2CCN(C(=O)COC(=O)c3ccccn3)CC2)c(C)c1 | -2.9 | x | -4 | x | x
COc1ccc(CCN2C(=O)CC(Cc3ccccc3)C2=O)cc1OC (configuration not stated) | -0.2 | x | -4 | -4% | x
CC(C)CNC(=S)NNC(=O)c1ccc2c(c1)OCO2 | -3.6 | -1 | x | x | -23
CC(C)N(C(=O)CSc1nc2c([nH]1)c(=O)n(C)c(=O)n2C)c1ccccc1 | -0.6 | 3 | 6 | 2% | -13 | Arbovirus inh repeat=-2
Cc1ccc(-c2nc3ncccc3o2)cc1NC(=O)c1sc2ccccc2c1Cl | x | -8 | -2 | 4% | -47
CCOC(=O)C1CCN(C(=O)CNC(=O)c2nn(-c3ccc(OC)cc3OC)c(=O)c3ccccc23)CC1 | 1.1 | x | 4 | x | x
Cc1nc2ccccc2nc1OCc1cccc([N+](=O)[O-])c1 | -1.8 | 4 | -5 | 2% | x
CCCN(CC(=O)c1cc(C)n(C)c1C)S(=O)(=O)c1cccc(C(F)(F)F)c1 | x | -10 | 4 | 7% | -17
Cc1cccc(NC(=O)c2ccccc2C(=O)O)c1 | -0.4 | 12 | -20 | -4% | 6
O=C1CC(Sc2ccc(Cl)cc2)C(=O)N1c1ccc2c(c1)OCCO2 (configuration not stated) | 7.3 | x | -2 | 14% | x
COc1ccccc1N1CCN(S(=O)(=O)c2cccc(F)c2)CC1 | x | 4 | -6 | -6% | 31
CC(C)(C)c1ccc(OCC(=O)N2CCN(C=O)CC2)cc1 | -1.6 | 4 | 1 | 0% | -18 | Arbovirus inh repeat=-1
CC1CCCCN1C(=O)CSc1nnc(-c2cccs2)o1 (configuration not stated) | -1.1 | x | 0 | x | x
CCOC(=O)C1=C(C)NC2=C(C(=O)CCC2)C1c1ccc(N(C)C)cc1 (configuration not stated) | -3.2 | 3 | 8 | 3% | -26
CN(C)CCNC(=O)c1onc(CSc2nc3ccccc3[nH]2)c1C(=O)NCCN(C)C | 0.1 | x | -7 | x | x
CCCN(C#N)c1nc(NCC)nc(NC(C)C)n1 | 0.0 | -3 | 2 | 3% | -48
Fc1ccc(OCCCCCCN2CCCC2)cc1 | 6.0 | 15 | -11 | 2% | -28
CCOc1ccc(-n2c(O)c(N=Nc3c(C)n(C)n(-c4ccccc4)c3=O)c(=O)[nH]c2=O)cc1 | 0.2 | x | -12 | -7% | x
Cc1cc(/C=N\O)c(C)n1-c1ccncc1 | -0.6 | 6 | 22 | x | -15
CSc1ccccc1NC(=O)CN(C)S(=O)(=O)c1ccc(F)cc1 | -0.7 | 5 | 4 | 0% | -5
COc1cc(/C=C/C(=O)O)cc(S(=O)(=O)N(C)CCO)c1OC | 0.1 | 12 | -1 | -11% | -13
CN(C)Cc1ccc(CNC(=O)COc2ccc3ccccc3c2)cc1 | 1.4 | x | -4 | x | x
OCCN(CCO)c1ccc2ccccc2c1 | 5.2 | -8 | 4 | -1% | x
CC1=C(C)CC(C(=O)N2CCN(Cc3ccc4c(c3)OCO4)CC2)C(C(=O)O)C1 (configuration not stated) | 1.5 | 1 | 6 | -3% | x
O=c1cc(-c2ccccc2)nc2nc(-c3ccco3)[nH]n12 | -1.0 | 0 | 65 | 7% | -51

Arranged by length of the SMILES (smallest number first): some entries from above
SMILES | RecA splice inh | Arbovirus inh | Mtb betalactam | Mtb H37Rv | YopH PTP inh | others
OCCN(CCO)c1ccc2ccccc2c1 | 5.2 | -8 | 4 | -1% | x
Fc1ccc(OCCCCCCN2CCCC2)cc1 | 6.0 | 15 | -11 | 2% | -28
O=c1cc(-c2ccccc2)nc2nc(-c3ccco3)[nH]n12 | -1.0 | 0 | 65 | 7% | -51
CSc1ccccc1NC(=O)CN(C)S(=O)(=O)c1ccc(F)cc1 | -0.7 | 5 | 4 | 0% | -5
CCOC(=O)C1=C(C)NC2=C(C(=O)CCC2)C1c1ccc(N(C)C)cc1 (configuration not stated) | -3.2 | 3 | 8 | 3% | -26
CC1=C(C)CC(C(=O)N2CCN(Cc3ccc4c(c3)OCO4)CC2)C(C(=O)O)C1 (configuration not stated) | 1.5 | 1 | 6 | -3% | x

The list continues.
SMILES | RecA splice inh | Arbovirus inh | Mtb betalactam | Mtb H37Rv | YopH PTP inh | others
CCC(C)n1c(=N)c(C#N)cc2c(=O)n3cccc(C)c3nc21 (configuration not stated) | i | 3 | 1 | -1% | x
O=C(c1ccccc1)N1CCCCC(Sc2nnnn2-c2ccccc2)C1=O (configuration not stated) | 4.4 | -1 | 8 | 0% | -18
Cc1cc(C(=O)OC(C(=O)Nc2ccc(C)c(Cl)c2)c2ccccc2)c(C)o1 (configuration not stated) | 0.4 | -2 | 0 | 2% | -32
CCOC(=O)CNC(=O)CSc1nc(C)cc(C)c1C#N | -1.0 | -1 | -5 | 8% | -19
CN(C)C(=O)c1ccc(COc2ccccc2Br)o1 | -0.6 | -4 | 2 | 4% | -15
O=S(=O)(c1cccc(-c2n[nH]c(=S)n2Cc2ccccc2)c1)N1CCOCC1 | -1.0 | x | 1 | -6% | x
CCOCc1nnc(NC(=O)CSc2ccccc2)s1 | 0.6 | 6 | -9 | -8% | -8
Cc1ccc(CS(=O)(=O)CCC(=O)NCC2CCCO2)cc1 (configuration not stated) | 0.9 | 0 | -12 | -7% | -4
Cc1ccccc1NS(=O)(=O)c1c(C(=O)N2CCCCCC2)c(C)n(C)c1C | -1.3 | x | 2 | x | x
Cc1cc(NC(=O)CCC(=O)N(C2CC2)C2(C(=O)NC3CCCC3)CCC(C)CC2)no1 (configuration not stated) | 0.0 | 2 | 3 | 0% | -2
CCOC(=O)N1CCN(C(=O)c2ccc3c(=O)n(CCC4=CCCCC4)c(=O)[nH]c3c2)CC1 | -1.3 | 1 | 50 | 12% | -34
NC(=O)C1CCN(C(=O)NC2CC(=O)N(c3ccc4c(c3)OCCO4)C2)CC1 (configuration not stated) | -0.8 | x | -1 | x | x

Looked up one by one from the list above (3):
SMILES | RecA splice inh | Arbovirus inh | Mtb betalactam | Mtb H37Rv | YopH PTP inh | others
CCOC(=O)N1CCN(C(=O)c2ccc3c(=O)n(CCC4=CCCCC4)c(=O)[nH]c3c2)CC1 | -1.3 | 1 | 50 | 12% | -34
CCC(C)n1c(=N)c(C#N)cc2c(=O)n3cccc(C)c3nc21 (configuration not stated) | i | 3 | 1 | -1% | x
CCOC(=O)CNC(=O)CSc1nc(C)cc(C)c1C#N | -1.0 | -1 | -5 | 8% | -19

Next section.
SMILES | RecA splice inh | Arbovirus inh | Mtb betalactam | Mtb H37Rv | YopH PTP inh | others
COc1ccc(CNC(=O)/C=C/c2ccco2)cc1OC | 1.8 | 6 | -2 | x | x
COc1ccc(C)cc1NCc1ccc(OC)c(C)c1OC | 4.0 | x | 2 | x | x
CC1(C)Cc2c(sc3c2C(=O)N(c2ccccc2)C2=NCCN23)CS1 | -7.4 | 2 | -3 | -5% | 15
CCCSc1nc(O)c(CC)c(=O)n1C(C)CC (configuration not stated) | 2.4 | 23 | 10 | 9% | 7
Cn1nc(C(=O)NC2=NCCS2)ccc1=O | -1.9 | -1 | -8 | 4% | -16
COC(CN(C)C(=O)C1CCC(CNS(=O)(=O)c2ccc(C)cc2)CC1)OC (configuration not stated) | -0.8 | x | 5 | x | x
COc1ccc(Br)cc1CN(C)C(=O)CNC(=O)c1ccc2ccccc2c1 | 1.2 | x | -3 | x | x
CN(Cc1ccccc1)CC(O)COc1ccc(CNCc2cccnc2)cc1 (configuration not stated) | -1.9 | 4 | -5 | 8% | x

Structures listed so far with a nitro group on carbon (2):
SMILES | RecA splice inh | Arbovirus inh | Mtb betalactam | Mtb H37Rv | YopH PTP inh | others
O=C(N/N=C/C=C\c1ccccc1[N+](=O)[O-])c1cccnc1 | 0.0 | x | 0 | -8% | x
Cc1nc2ccccc2nc1OCc1cccc([N+](=O)[O-])c1 | -1.8 | 4 | -5 | 2% | x

Not a retest: 2 of the compounds above.
SMILES | RecA splice inh | Arbovirus inh | Mtb betalactam | Mtb H37Rv | YopH PTP inh | others
COc1ccc(Br)cc1CN(C)C(=O)CNC(=O)c1ccc2ccccc2c1 | 1.2 | x | -3 | x | x
CN(Cc1ccccc1)CC(O)COc1ccc(CNCc2cccnc2)cc1 (configuration not stated) | -1.9 | 4 | -5 | 8% | x

Screens from PubChem BioAssay.

The list is partial (hit frequency here may not be typical).
